FGF22 binding – FGF22 (human) thermal shift binding. Q9HCT0. recombinant FGF22 thermal shift, SYPRO orange fluorescence; percent of sucrose octasulfate shift, DMSO zero. calls only at 9.99 µM. hit rate 1.5% among 340,000. AID 651658;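 active means melting point raised past a set limit in the mean and every replicate; three in four hits are not shown here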
HNF4A DNA FP – change in binding of human HNF4 alpha to DNA. P41235. HNF4a-FITC DNA binding, fluorescence polarization, 1 h. activity change, % at 10 µM. AID 1224865. hit rate 0.3% among 360,000; in the data active means activity change above about 30%, passing the limit was not always enough;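 further: controls were the assay level and a saturating level of protein; the project sought stronger binding though the title names inhibitors; some compounds called inactive have numbers as strong as hits; positive values seem to mean higher polarization but the record does not say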
Target sequence (P41235 whole entry, looked up): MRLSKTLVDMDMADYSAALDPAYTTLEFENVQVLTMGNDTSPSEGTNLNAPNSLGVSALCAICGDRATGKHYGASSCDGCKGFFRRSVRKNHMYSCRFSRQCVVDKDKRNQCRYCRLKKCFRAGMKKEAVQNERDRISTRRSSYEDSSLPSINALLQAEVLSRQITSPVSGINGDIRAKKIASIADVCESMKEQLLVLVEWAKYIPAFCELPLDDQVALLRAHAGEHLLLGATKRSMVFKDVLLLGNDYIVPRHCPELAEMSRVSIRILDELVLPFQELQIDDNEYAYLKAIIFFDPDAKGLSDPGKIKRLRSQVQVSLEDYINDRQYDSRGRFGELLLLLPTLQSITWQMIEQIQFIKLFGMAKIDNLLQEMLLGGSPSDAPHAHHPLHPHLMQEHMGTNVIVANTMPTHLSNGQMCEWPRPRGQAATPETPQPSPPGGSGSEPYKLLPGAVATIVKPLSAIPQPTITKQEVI
E coli growth – blocks Escherichia coli growth | OD600, 23 h; active compounds read low | hit rate 0.21% among 330,000 | OD600 absorbance (no concentration beside the values);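 active means OD600 absorbance below the run mean of sample wells minus 3.6 SD, in any replicate, cut at about 0.56 in these data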;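 further: stock transfer was 300 nL into about 60 µL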
Vif A3G – inhibitors of Vif binding to APOBEC3G peptide, primary screen, biochemical, TR-FRET, GST-Vif 1-94, biotin-A3G peptide, dose response retest (AID 1117319) | inhibition, %; hits with a dose series show IC50 in µM | hit rate 0.57% among 260,000 | TR-FRET GST-Vif / biotin-A3G peptide binding; higher % means a stronger effect; test concentration not given here; strong numbers were not always called active;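 active means above the screen mean plus three standard deviations and confirmed in dose response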;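 further: Vif residues 1-94 fused to GST binding biotinylated APOBEC3G peptide 110-148; 0% = full assay without inhibitor and 100% = GST in place of GST-Vif; retest series ran down from 100 µM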
rRNA inh HTS – inhibits bacterial ribosomal RNA function over humanized ribosomes; E. coli WT GFP vs humanized-ribosome RFP mutants, fluorescence, 24 h; active compounds read low; DMSO median 0, no signal -100; GFP signal change (wild-type ribosome), % (concentration not given with the values); hit rate 1.6% among 350,000;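 active means significant combined selectivity score with lowered wild-type GFP, culture density cut under 30%, mutant RFP and density less affected; inactive means any of these conditions unmet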; further: one replicate is shown; some compounds called inactive have numbers as strong as hits
MLL AF4-AF9 inh – MLL-AF4/AF9 protein interaction inhibition | AlphaScreen, biotin-AF4 peptide binding to FLAG-AF9 | inhibition, % at 10 µM | hit rate 0.47% among 350,000;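 active means every replicate reaching a set inhibition limit, whatever the replicate mean, cut at about 25% in these data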;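 further: 0% = plate neutral control median and 100% = total signal loss; the record names both 10 and 1 µM as test concentration; the first replicate is given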
ALR H2O2 inh – human ALR oxidase inhibition via reduced H2O2. P55789. purified ALR, DTT oxidation, H2O2 HRP-luminol luminescence. inhibition, % (concentration not given with the values). hit rate 3.8% among 290,000. AID 485317;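 active means mean and each replicate at 75% or more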;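 further: stock transfer was 7.5 nL into about 7.5 µL; 0% = neutral wells and 100% = wells with inactivated enzyme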
Target sequence (P55789 whole entry, looked up): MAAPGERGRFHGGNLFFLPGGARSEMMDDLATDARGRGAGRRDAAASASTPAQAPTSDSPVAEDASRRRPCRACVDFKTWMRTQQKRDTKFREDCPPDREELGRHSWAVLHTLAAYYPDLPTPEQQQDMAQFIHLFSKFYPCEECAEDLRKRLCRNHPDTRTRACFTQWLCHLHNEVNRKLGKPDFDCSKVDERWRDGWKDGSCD
rRNA inh HTS OD600 – also measured in rRNA inh HTS; calls as there; OD600 change, %; measured here: OD600 growth;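 optical density of the mix in the first replicate; 0 = DMSO median and -100 = no signal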
rRNA inh HTS RFP – further read-out of rRNA inh HTS, marked with its call; RFP signal change, %; measured here: RFP humanized mutant strains;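 first replicate; 0 = DMSO median and -100 = no signal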
Starred values were filed as active, the others as inactive; i = inactive; / = no result given; + = active, no number. These rows are one share of the data; the hit share may differ from the screen's.

| SMILES | FGF22 binding | HNF4A DNA FP | E coli growth | Vif A3G | rRNA inh HTS | rRNA inh HTS OD600 | rRNA inh HTS RFP | MLL AF4-AF9 inh | ALR H2O2 inh |
| --- | --- | --- | --- | --- | --- | --- | --- | --- | --- |
| CN(C)C(=O)c1cccc(-c2ccc([C@@H]3[C@H]4CN(Cc5cccnc5)CCCCN4[C@H]3CO)cc2)c1 | i | / | / | / | 8 | 28 | -1.4 | -1.3 | / |
| CNC[C@@H]1OCCCC[C@@H](C)Oc2ccc(NC(=O)CCC(F)(F)F)cc2C(=O)N([C@@H](C)CO)C[C@H]1C | i | / | / | / | 8 | 8 | -0.9 | -4.0 | / |
| Cc1ccc(-c2ccc3c(c2)O[C@@H](CN(C)C(=O)Nc2ccc(F)cc2)[C@@H](C)CN([C@H](C)CO)S3(=O)=O)cc1 | i | / | / | / | -2 | -16 | 0.5 | 2.3 | / |
| Cc1ccc(C)c(N2C(=O)CS/C2=N\NC(=O)c2ccccc2Cl)c1 | / | 13 | / | 1% | / | / | / | / | 25 |
| O=C(Nc1cc2c3c(c1)CC(=O)N3CCC2)c1ccc(Cl)cc1 | i | -2.3 | 0.62 | 0% | 4 | 9 | -1.8 | 8.0 | -15 |
| CCOC(=O)C1=CCN(S(=O)(=O)c2ccccc2F)C1c1ccccc1 (centres undefined) | / | -0.6 | / | / | -4 | -34 | -5.2 | -2.8 | / |
| Nc1nonc1-c1nc2ccccc2n1Cc1ccc(F)cc1 | / | -0.5 | 0.68 | 3% | / | / | / | / | -11 |
| COC(=O)c1cc2c(c3c4cc(OC)ccc4n(S(C)(=O)=O)c13)C(=O)N(C)C2 | i | / | / | / | -3 | -4 | 4.4 | 2.0 | / |
| Cc1cc(C)cc(NC(=O)CCN2CC(C)OC(C)C2)c1 (centres undefined) | / | -1.4 | 0.7 | 0% | / | / | / | / | -3 |
| C[C@H](CO)N1C[C@H](C)[C@H](CN(C)S(=O)(=O)c2ccccc2)Oc2ncc(-c3cccc(C(=O)N(C)C)c3)cc2C1=O | i | / | / | / | 2 | 4 | -3.1 | -5.2 | / |
| CN1C(=O)C(C)(C)c2cc(S(=O)(=O)N3CCN(c4ccccc4F)CC3)ccc21 | i | -0.9 | 0.76 | / | 0 | -5 | 5.6 | 3.3 | -1 |
| c1ccc(-c2cncnc2)nc1 | i | 2.1 | 0.63 | / | 16 | 9 | 8.6 | -0.3 | -9 |
| Cc1cc(NC(=O)CSc2nc(-c3ccccc3Cl)nc3c2c(=O)n(C)c(=O)n3C)no1 | i | -0.5 | 0.69 | 7% | 16 | 6 | 1.0 | -3.3 | -6 |
| CCCCC(CC)COC(=O)CCCCC(=O)OCC(CC)CCCC (centres undefined) | i | 2.2 | / | / | 13 | 14 | 1.1 | / | 11 |
| COc1ccc([C@H]2CC(=O)C[C@@H](CCn3cc(Cc4ccccc4)nn3)O2)cc1 | i | 3.4 | / | / | -7 | -4 | 7.3 | -0.2 | / |
| O=C(O)CCc1ccc(-c2ccc(Br)cc2)n1-c1ccc(O)cc1 | i | 2.4 | 0.64 | -10% | -20 | -43 | -0.8 | 2.1 | 58 |
| O=C(Cc1c(O)c2ccccc2[nH]c1=O)NCc1ccccc1 | / | 2.3 | 0.64 | -11% | / | / | / | / | 17 |
| Cc1ccc(S(=O)(=O)N(C)C[C@@H]2Oc3ccc(NC(=O)C4CC4)cc3CC(=O)N([C@H](C)CO)C[C@@H]2C)cc1 | i | / | / | / | -4 | 4 | 1.5 | -0.1 | / |
| O=S(=O)(Cc1ccccc1)N1CCCC(c2nc(-c3ccc(F)cc3)no2)C1 (centres undefined) | / | -7.2 | 0.75 | -3% | / | / | / | / | -29 |
| CCC(C)(C)C1CCc2[nH]nc(C(=O)NCc3ccc(Cl)cc3)c2C1 (centres undefined) | i | 1.0 | 0.72 | / | 4 | 2 | 4.4 | -0.9 | -17 |
| COc1cc(C(=O)N2CCCC(C)(C(=O)NS(=O)(=O)C3CC3)C2)cc(OC)c1OC (centres undefined) | i | 6.1 | / | / | / | / | / | -3.2 | / |
| O=C(O)c1cccc(N2C(=O)CSC2c2ccccc2)c1 (centres undefined) | i | -3.5 | 0.68 | / | 9 | 8 | 6.0 | -3.6 | -2 |
| O=C(CNC(=O)c1cccs1)NCC(=O)OCC(=O)c1ccc([N+](=O)[O-])cc1 | i | -3.2 | 0.66 | 1% | 21 | 11 | -0.6 | -12 | 96* |
| O=C(C[C@@H]1CC[C@H]2[C@@H](COC[C@@H](O)CN2C(=O)c2ccccc2F)O1)NCc1ccccc1 | + | / | / | / | -1 | 13 | -6.4 | -0.9 | / |
| C[C@@H]1CN([C@H](C)CO)S(=O)(=O)c2ccc(C#CCN(C)C)cc2O[C@H]1CN(C)C(=O)Nc1ccccc1F | i | / | / | / | 4 | -2 | -0.3 | 0.5 | / |
| CCOc1ccccc1Nc1ncnc2ccc(Br)cc12 | i | -2.0 | 0.63 | / | 10 | 5 | -0.7 | 0.8 | 3 |
| Cc1ccc(S(=O)(=O)N2CCC(=O)N(C(CO)C(C)C)CC2)cc1 (centres undefined) | i | -0.6 | 0.75 | 14% | 9 | 8 | 1.8 | 0.2 | -1 |
| Cc1cc(Nc2ccc(Br)cc2)n2nc(C)nc2n1 | i | 2.8 | 0.73 | 54% | 0 | 1 | -2.5 | 0.1 | 13 |
| Cc1cc(C(=O)Nc2ccc(Cl)cc2)c(C)n1Cc1cccs1 | i | 1.6 | 0.68 | 1% | -30* | -4.5* | -6.1* | 2.4 | -8 |
| CC(C)(C)NC(=O)N1CCC(CO)(Cc2ccccc2Cl)CC1 | + | 5.0 | 0.66 | 7% | -10 | -10 | 0.7 | -2.5 | / |
| CCCc1ccc(OCc2ccc(C(=O)NN)o2)c(OC)c1 | i | 5.3 | 0.68 | -2% | -22 | -19 | -1.4 | 1.3 | / |
| CNC(=O)C1CC(=O)N(CCc2ccc(C)cc2)C1 (centres undefined) | i | -1.2 | 0.67 | -6% | 11 | 18 | -1.0 | 0.0 | -10 |
| C[C@@H]1CCCCO[C@H](CN(C)Cc2ccncc2)[C@H](C)CN([C@@H](C)CO)C(=O)c2cc(NC(=O)Nc3cccc4ccccc34)ccc2O1 | i | / | / | / | -14 | -8 | 7.3 | 2.4 | / |

Reprinted from the entries so far for reference:
| SMILES | FGF22 binding | HNF4A DNA FP | E coli growth | Vif A3G | rRNA inh HTS | rRNA inh HTS OD600 | rRNA inh HTS RFP | MLL AF4-AF9 inh | ALR H2O2 inh |
| --- | --- | --- | --- | --- | --- | --- | --- | --- | --- |
| CN(C)C(=O)c1cccc(-c2ccc([C@@H]3[C@H]4CN(Cc5cccnc5)CCCCN4[C@H]3CO)cc2)c1 | i | / | / | / | 8 | 28 | -1.4 | -1.3 | / |
| CNC[C@@H]1OCCCC[C@@H](C)Oc2ccc(NC(=O)CCC(F)(F)F)cc2C(=O)N([C@@H](C)CO)C[C@H]1C | i | / | / | / | 8 | 8 | -0.9 | -4.0 | / |
| Cc1ccc(-c2ccc3c(c2)O[C@@H](CN(C)C(=O)Nc2ccc(F)cc2)[C@@H](C)CN([C@H](C)CO)S3(=O)=O)cc1 | i | / | / | / | -2 | -16 | 0.5 | 2.3 | / |
| Cc1ccc(C)c(N2C(=O)CS/C2=N\NC(=O)c2ccccc2Cl)c1 | / | 13 | / | 1% | / | / | / | / | 25 |
| O=C(Nc1cc2c3c(c1)CC(=O)N3CCC2)c1ccc(Cl)cc1 | i | -2.3 | 0.62 | 0% | 4 | 9 | -1.8 | 8.0 | -15 |
| CCOC(=O)C1=CCN(S(=O)(=O)c2ccccc2F)C1c1ccccc1 (centres undefined) | / | -0.6 | / | / | -4 | -34 | -5.2 | -2.8 | / |
| Nc1nonc1-c1nc2ccccc2n1Cc1ccc(F)cc1 | / | -0.5 | 0.68 | 3% | / | / | / | / | -11 |
| COC(=O)c1cc2c(c3c4cc(OC)ccc4n(S(C)(=O)=O)c13)C(=O)N(C)C2 | i | / | / | / | -3 | -4 | 4.4 | 2.0 | / |
| Cc1cc(C)cc(NC(=O)CCN2CC(C)OC(C)C2)c1 (centres undefined) | / | -1.4 | 0.7 | 0% | / | / | / | / | -3 |
